High-throughput results deposited in PubChem by several laboratories.
VCAM-1 down imaging: inhibitors of TNFa-induced VCAM-1 surface display, imaging, high-content imaging, pooled HUVEC, TNFa stimulus (AID 456); hit rate 0.2% among 10,000; HUVEC TNFa-induced VCAM-1 surface expression, immunofluorescence imaging; numbers were filed only for top-ranked candidate wells; inhibition, % at 5 µM; hits with a dose series show IC50 in µM;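 active means top tenth filtered wells with inhibition above zero that passed visual or statistical confirmation; inactive means the rest, including hits rejected on review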;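 further: 0% = stimulated vehicle wells and 100% = unstimulated cells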
FPRL1 ligand: ligands of human FPRL1, also counter-screen for FPR ligands. P25090. FPRL1-expressing cells, fluorescent ligand binding inhibition, flow cytometry. inhibition, %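 (tested at 6.7 µM)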. hit rate 0.3% among 24,000. AID 441;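 further: 0% = buffer alone and 100% = receptor blocker peptide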
Target sequence (P25090 whole entry, looked up): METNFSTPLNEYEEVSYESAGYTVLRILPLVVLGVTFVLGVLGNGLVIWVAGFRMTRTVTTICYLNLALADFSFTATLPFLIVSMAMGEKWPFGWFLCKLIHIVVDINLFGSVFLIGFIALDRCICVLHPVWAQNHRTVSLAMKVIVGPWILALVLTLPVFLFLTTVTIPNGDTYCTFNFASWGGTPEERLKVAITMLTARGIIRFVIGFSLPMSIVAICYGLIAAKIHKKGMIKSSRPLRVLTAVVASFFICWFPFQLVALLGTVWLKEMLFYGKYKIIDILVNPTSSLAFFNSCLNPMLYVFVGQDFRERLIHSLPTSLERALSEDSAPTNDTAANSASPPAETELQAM
VCAM-1 inhibition: suppression of endothelial VCAM-1 upregulation – cell-based, plate reader, pooled HUVEC, TNFa stimulus (AID 454). HUVEC TNFa-induced VCAM-1 surface immunofluorescence, plate reader; numbers were filed only for top-ranked candidate wells. inhibition, % at 5 µM. hit rate 0.2% among 10,000;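 active means compound among top-ranked inhibitors of TNF-induced VCAM-1 adhesion protein staining, with the hit upheld by image or statistical review; inactive means the rest, including hits rejected on review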;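 further: 0% = TNFa with vehicle and 100% = cells without TNFa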
FPR ligand: human FPR ligand, with FPRL1 counter-screen. P21462. FPR-expressing cells, fluorescent ligand binding, flow cytometry. inhibition, %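 (tested at 6.7 µM)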. hit rate 0.74% among 24,000. AID 440;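 further: 0% = buffer wells and 100% = receptor blocker peptide wells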
Target sequence (P21462 whole entry, looked up): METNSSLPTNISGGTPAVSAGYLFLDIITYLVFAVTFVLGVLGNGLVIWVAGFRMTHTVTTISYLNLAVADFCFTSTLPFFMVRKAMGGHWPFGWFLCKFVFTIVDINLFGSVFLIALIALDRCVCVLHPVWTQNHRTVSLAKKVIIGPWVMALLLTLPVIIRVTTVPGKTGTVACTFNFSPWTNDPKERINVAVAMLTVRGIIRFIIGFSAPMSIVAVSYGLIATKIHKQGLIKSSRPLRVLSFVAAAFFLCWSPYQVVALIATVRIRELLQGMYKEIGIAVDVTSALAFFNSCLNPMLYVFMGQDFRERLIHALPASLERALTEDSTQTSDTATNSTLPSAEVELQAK
VCAM-1 up imaging: boosters of cytokine-driven VCAM-1 levels – imaging, high-content imaging, pooled HUVEC, TNFa stimulus (AID 457). hit rate 0.2% among 10,000. Pooled HUVEC, TNFa-induced VCAM-1 immunofluorescence imaging; hits of this screen are not shown here. calls only;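 active means a top-ranked rise in VCAM-1 staining upheld on image or statistical review; inactive means the rest, including candidates rejected on review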;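 further: compounds tested at 5 µM in the well; cells exposed to compound for 24 hours before fixing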
The depositor's hits bear a star; i = inactive; . = no result given.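 How the source made its calls, unless noted: active means mean above 30%; inconclusive means self-fluorescent; inactive means the rest.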 Only part of the results is shown, so the mix of outcomes need not match the whole.

The line under a structure holds: FPRL1 ligand | VCAM-1 inhibition | VCAM-1 up imaging | FPR ligand | VCAM-1 down imaging
Cc1oc(-c2ccc(Cl)cc2)nc1CS(=O)CC(=O)N1CCC2(CC1)OCCO2 (stereo not drawn)
    -8 | . | . | -7 | .
CSc1ccc(CNC2CN3CCC2CC3)cc1 (stereo not drawn)
    -7 | i | i | -5 | i
O=c1[nH]c2ccccc2n1C1CCN(CCCC(c2ccc(F)cc2)c2ccc(F)cc2)CC1
    3 | 72 | i | 3 | i
COc1cccc(C2=NOC(C(=O)N3CCC4(CC3)OCCO4)C2)c1 (stereo not drawn)
    0 | . | . | -1 | .
CCOC(=O)c1cccc([P+](=O)O)c1
    12 | i | i | -1 | i
O=c1[nH]c(=O)n(Cc2ccco2)c(O)c1C=NCCCn1ccnc1
    -2 | i | i | -6 | i
COc1ccc(C2NCc3ccc4c(c3-n3cccc32)OCO4)cc1OC (stereo not drawn)
    5 | . | . | -6 | .
COc1ccc(CN2CCN(C(=O)Cc3ccccc3)CC2)c(OC)c1
    2 | i | i | 9 | i
O=C(Cn1ncc2c3ccccc3n(Cc3ccccc3)c2c1=O)N1CCC2(CC1)OCCO2
    -10 | . | . | 8 | .
O=C(CCCOc1ccc(Cl)cc1Cl)N1CCC2(CC1)OCCO2
    -2 | i | i | 12 | i
CCn1c(=O)cc(OCC(=O)N2CCN(Cc3ccc4c(c3)OCO4)CC2)c2ccccc21
    -2 | . | . | -5 | .
O=C(CN1CC(c2ccccc2)CC1=O)Nc1ccc(F)cc1 (stereo not drawn)
    0 | . | . | -8 | .
Cc1cc(C)c(C(=O)CN2CCOCC2)c(C)c1
    -8 | i | i | -3 | i
CCOc1ccc(Br)c(C2(O)CC(C)N(C)CC2C)c1 (stereo not drawn)
    -5 | i | i | 0 | i
O=C(Cc1ccccc1)N1CCN(C/C=C/c2ccccc2)CC1
    3 | . | . | 4 | .
COc1ccc(N2C(=O)CC(N3CC=C(c4ccccc4)CC3)C2=O)cc1 (stereo not drawn)
    0 | . | . | 4 | .
CCOC(=O)C1C2NC(=O)N(Cc3ccccc3)C1(C)Oc1c(OC)cccc12 (stereo not drawn)
    3 | . | . | 0 | .
Cc1cc(N2C(=O)C3CCCN3C2c2sccc2C)no1 (stereo not drawn)
    -7 | . | . | -2 | .
CC(C(=O)N1CCC2(CC1)OCCO2)C1Sc2ccccc2NC1=O (stereo not drawn)
    0 | . | . | 1 | .
N=C(N)c1c(O)n(C2CCCCC2)c(=O)n(C2CCCCC2)c1=O
    -4 | i | i | 1 | i
O=C(C1CCCN(c2nnc(-n3cccc3)s2)C1)N1CCC2(CC1)OCCO2 (stereo not drawn)
    -6 | i | i | -11 | i
CC(=O)c1cccc(NC2=NCC(C)S2)c1 (stereo not drawn)
    8 | . | . | 12 | .
CN(C)C1(c2nnnn2-c2ccc(Cl)cc2)CCCCC1
    2 | . | . | 2 | .
c1cncc(C2CC(c3cccs3)n3ncnc3N2)c1 (stereo not drawn)
    -3 | . | . | -4 | .
CCCCN1C(=O)NC(=O)C2(Cc3c(nc4c(C)cccn4c3=O)N3CCc4ccccc4C32)C1=O (stereo not drawn)
    -9 | i | i | -4 | i
Cc1nc2cc(-c3ccc(Cl)cc3)nn2c(C)c1CCC(=O)N1CCC2(CC1)OCCO2
    7 | . | . | 6 | .
CC1OC(NCCc2ccccc2)C(O)C(O)C1O (stereo not drawn)
    7 | . | . | -4 | .
O=C1C2CCCN2C(c2cccnc2)N1c1ccc(Cl)c(Cl)c1 (stereo not drawn)
    -1 | . | . | -5 | .
Cc1ccc(CS(=O)(=O)Cc2ccc(C(=O)N3CCC4(CC3)OCCO4)o2)cc1
    -6 | . | . | -2 | .
O=C(CCCCCn1c(=S)[nH]c2ccccc2c1=O)N1CCC2(CC1)OCCO2
    -3 | . | . | -1 | .
O=C(c1ccc(CS(=O)(=O)c2ccc(Br)cc2)o1)N1CCC2(CC1)OCCO2
    3 | . | . | -3 | .
O=C(c1ccc2c(=O)n(Cc3ccc4c(c3)OCO4)c(=S)[nH]c2c1)N1CCC2(CC1)OCCO2
    -5 | . | . | 29 | .
CCCCCCn1c(O)c(C=NC2CCN(Cc3ccccc3)CC2)c(=O)[nH]c1=O
    3 | i | i | 3 | i
COc1ccc(C2NCc3ccc4c(c3-n3cccc32)OCO4)cc1O (stereo not drawn)
    4 | i | i | 1 | i
CC12CCCCC1=[N+]([O-])CN2O (stereo not drawn)
    8 | i | i | -2 | i
O=C(c1ccc2c(c1)ncn2C1CCCCC1)N1CCC2(CC1)OCCO2
    1 | . | . | 0 | .
Cc1ccc2nc(N3CCN(C)CC3)[nH]c2c1
    8 | i | i | -2 | i
Oc1ccc(CC2CC3CCN2CC3)cc1O (stereo not drawn)
    -6 | . | . | -2 | .
Cc1ccc(C)c(NC2=NCCCS2)c1
    -3 | i | i | 4 | i
COc1cc(C2NCc3ccccc3-n3cccc32)ccc1O (stereo not drawn)
    3 | i | i | -6 | i
CC1=NOC2(C)Nc3ncnn3C(c3ccccc3)C12 (stereo not drawn)
    5 | i | i | -12 | i
Cc1cc(NC(=O)COC(=O)c2c(C)nn(Cc3ccccc3)c2Cl)no1
    -1 | i | i | -2 | i
COc1ccccc1OCCCn1cc(C(=O)c2ccco2)c2ccccc21
    3 | i | i | -1 | i
Cn1c(=O)cc(SCC(=O)N2CCC3(CC2)OCCO3)c2ccc(Cl)cc21
    4 | i | i | -1 | i
CC(=O)N1CC(=O)Nc2ccc(Cl)cc2C1c1ccc(F)cc1 (stereo not drawn)
    5 | i | i | -1 | i

Ordered by count of non-hydrogen atoms (ascending): part of the list above
The line under a structure holds: FPRL1 ligand | VCAM-1 inhibition | VCAM-1 up imaging | FPR ligand | VCAM-1 down imaging
CC1OC(NCCc2ccccc2)C(O)C(O)C1O (stereo not drawn)
    7 | . | . | -4 | .
CCOc1ccc(Br)c(C2(O)CC(C)N(C)CC2C)c1 (stereo not drawn)
    -5 | i | i | 0 | i
O=C(CCCOc1ccc(Cl)cc1Cl)N1CCC2(CC1)OCCO2
    -2 | i | i | 12 | i
COc1cccc(C2=NOC(C(=O)N3CCC4(CC3)OCCO4)C2)c1 (stereo not drawn)
    0 | . | . | -1 | .

Additional records
The line under a structure holds: FPRL1 ligand | VCAM-1 inhibition | VCAM-1 up imaging | FPR ligand | VCAM-1 down imaging
CN1CC[C@@]23CCCC[C@@H]2[C@@H]1Cc1ccc(O)cc13
    2 | i | i | 0 | i
CC1CCCCN1CC(=O)c1ccc2cc[nH]c2c1 (stereo not drawn)
    -3 | . | . | 1 | .
N#Cc1ccccc1Cn1cc(C(=O)c2ccco2)c2ccccc21
    -8 | i | i | 9 | i
CCOc1ccc(-n2c(CC)nc3ccccc3c2=O)cc1
    -4 | . | . | 4 | .
Cc1ccc(S(=O)(=O)N2CCCC(C(=O)N3CCC4(CC3)OCCO4)C2)cc1 (stereo not drawn)
    1 | . | . | 4 | .
Cc1c2cnn(CC(=O)N3CCC4(CC3)OCCO4)c(=O)c2c(C)n1Cc1ccc(F)cc1
    4 | . | . | 0 | .
CC(C)=CCSc1nnc([C@@H](N)Cc2c[nH]c3ccccc23)o1
    11 | i | i | 0 | i
O=C(c1cc2cc3ccc(Cl)cc3nc2o1)N1CCC2(CC1)OCCO2
    1 | . | . | -2 | .
C[N+]1(C)[C@@H]2CC[C@H]1CC(OC(=O)C(CO)c1ccccc1)C2 (stereo partly drawn)
    0 | i | i | 0 | i
CC12CN3CC(C)(CN(C1)C3c1ccncc1)C2=O (stereo not drawn)
    5 | . | . | 1 | .
Cc1ccc2nc(N3CCC(C(=O)N4CCC5(CC4)OCCO5)CC3)sc2c1
    7 | . | . | 5 | .
CCOC(=O)C1CCCCC12C(C#N)=C(N)Oc1n[nH]c(C)c12 (stereo not drawn)
    -3 | i | i | -3 | i
CN1C(=O)C(Cc2cccc3ccccc23)C(=O)N(C)C1=O
    -10 | i | i | -4 | i
CC(C)OC(=O)c1c(N)n(CC2CCCO2)c2nc3ccccc3nc12 (stereo not drawn)
    1 | i | i | 9 | i
CC(C)OCCCNC(=O)c1c(N)n(Cc2cccs2)c2nc3ccccc3nc12
    5 | i | i | -7 | i

6 compounds picked at random from those above:
The line under a structure holds: FPRL1 ligand | VCAM-1 inhibition | VCAM-1 up imaging | FPR ligand | VCAM-1 down imaging
N#Cc1ccccc1Cn1cc(C(=O)c2ccco2)c2ccccc21
    -8 | i | i | 9 | i
CCOc1ccc(-n2c(CC)nc3ccccc3c2=O)cc1
    -4 | . | . | 4 | .
CC(C)=CCSc1nnc([C@@H](N)Cc2c[nH]c3ccccc23)o1
    11 | i | i | 0 | i
CC1OC(NCCc2ccccc2)C(O)C(O)C1O (stereo not drawn)
    7 | . | . | -4 | .
Oc1ccc(CC2CC3CCN2CC3)cc1O (stereo not drawn)
    -6 | . | . | -2 | .
CCOC(=O)C1C2NC(=O)N(Cc3ccccc3)C1(C)Oc1c(OC)cccc12 (stereo not drawn)
    3 | . | . | 0 | .

The results go on.
The line under a structure holds: FPRL1 ligand | VCAM-1 inhibition | VCAM-1 up imaging | FPR ligand | VCAM-1 down imaging
O=C(c1cc(-c2ccccc2)nc2ccccc12)N1CCC2(CC1)OCCO2
    -2 | . | . | -5 | .
Cc1c2cnn(CC(=O)N3CCC4(CC3)OCCO4)c(=O)c2c(C)n1Cc1ccccc1F
    1 | . | . | -5 | .
CN1C(=O)N(C)C(=O)C2(Cc3ccccc3N3CCOCC32)C1=O (stereo not drawn)
    -5 | i | i | -2 | i
Cn1c(=O)cc(OCC(=O)N2CCN(Cc3ccc4c(c3)OCO4)CC2)c2ccccc21
    2 | . | . | 1 | .
COc1ccc(S(=O)(=O)Cc2ccc(C(=O)N3CCC4(CC3)OCCO4)o2)cc1
    -2 | . | . | -6 | .
Cc1sc2ncn(CC(=O)NCC(=O)N3CCC4(CC3)OCCO4)c(=O)c2c1C
    2 | . | . | 1 | .
CCOC(=O)C(O)(c1cn(C)c2ccccc12)C(F)(F)F (stereo not drawn)
    -3 | . | . | 1 | .
CC[C@@H](CO)NC(=O)[C@@H]1C=C2c3cccc4c3c(cn4C)C[C@H]2N(C)C1
    -1 | i | i | 0 | i
O=C(CN1CCOCC1)c1ccc2cc[nH]c2c1
    2 | . | . | -3 | .
O=C(CN1CC(c2ccccc2)CC1=O)Nc1cccc(F)c1 (stereo not drawn)
    1 | . | . | 1 | .
O=C(NCc1ccc(C(=O)N2CCC3(CC2)OCCO3)cc1)c1ccc2c(c1)OCO2
    4 | . | . | -2 | .
O=C(Cc1ccccc1)OC(COCc1ccccc1)CN1CCOCC1 (stereo not drawn)
    -1 | i | i | -1 | i
O=C(CN1CC(c2ccccc2)CC1=O)NCc1ccc(F)cc1 (stereo not drawn)
    -2 | . | . | -8 | .
CC(C)(C)P(=O)(c1ccncc1)N1CCCC1 (stereo not drawn)
    0 | i | i | -2 | i
O=C(c1cc(-c2ccncc2)nc2ccccc12)N1CCC2(CC1)OCCO2
    4 | . | . | 2 | .

Reformatted with each value named: 2 of the compounds above
CC1OC(NCCc2ccccc2)C(O)C(O)C1O (stereo not drawn)
  FPRL1 ligand: 7 | VCAM-1 inhibition: . | VCAM-1 up imaging: . | FPR ligand: -4 | VCAM-1 down imaging: .
O=C1C2CCCN2C(c2cccnc2)N1c1ccc(Cl)c(Cl)c1 (stereo not drawn)
  FPRL1 ligand: -1 | VCAM-1 inhibition: . | VCAM-1 up imaging: . | FPR ligand: -5 | VCAM-1 down imaging: .

Next structures follow:
The line under a structure holds: FPRL1 ligand | VCAM-1 inhibition | VCAM-1 up imaging | FPR ligand | VCAM-1 down imaging
O=C(c1cc(-c2cccnc2)nc2ccccc12)N1CCC2(CC1)OCCO2
    6 | . | . | 2 | .
CC(=NCc1ccc2c(c1)OCO2)c1c(O)n(C)c(=O)n(C)c1=O
    -3 | i | i | 1 | i
Cc1cnn(C2CCN(C)CC2)c1N
    8 | i | i | -3 | i
O=C(c1cc2ccccn2n1)N1CCC2(CC1)OCCO2
    -3 | . | . | -4 | .
O=c1c2ccccc2nc(CSc2ncnc3nc[nH]c23)n1-c1ccccc1
    13 | i | i | -1 | i
